Polio RdRp inh = inhibitors of poliovirus RNA polymerase binding and polymerization; AID 588519; 150,000 tested, 0.66% active; % elongation, % (compound at 16.7 µg/mL); poliovirus polymerase elongation, fluorescence polarization; active compounds read low; in the data active means % elongation below about 90%; further: some results filed as inactive read as strong as hits
Target sequence (P03300 1749-2209 limits assumed): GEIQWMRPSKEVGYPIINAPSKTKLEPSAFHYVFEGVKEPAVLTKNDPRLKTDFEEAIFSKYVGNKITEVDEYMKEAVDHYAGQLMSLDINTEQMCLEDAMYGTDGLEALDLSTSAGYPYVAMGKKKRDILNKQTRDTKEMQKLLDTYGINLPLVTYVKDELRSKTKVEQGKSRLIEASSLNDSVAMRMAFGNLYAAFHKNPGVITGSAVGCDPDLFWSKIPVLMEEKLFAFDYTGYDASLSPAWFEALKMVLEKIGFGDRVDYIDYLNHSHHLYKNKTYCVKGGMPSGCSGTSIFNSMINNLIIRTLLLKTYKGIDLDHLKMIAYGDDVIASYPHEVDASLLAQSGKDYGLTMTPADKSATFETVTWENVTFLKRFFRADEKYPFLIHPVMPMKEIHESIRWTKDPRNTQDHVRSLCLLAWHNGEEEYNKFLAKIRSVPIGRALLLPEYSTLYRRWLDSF
Polio RdRp inh intensity = recorded beside Polio RdRp inh, whose call it bears; % elongation; measured here: total intensity read-out; formula for this scale not given here;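 total fluorescence in place of polarization; lower means less elongation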
* marks the source's active call; other numbers are inactive results.

[1] Cc1ccc(-c2nn(CCC(N)=O)c(=O)c3ccccc23)cc1
[2] CCOc1ccc2oc(=O)cc(CN3CCN(Cc4ccc(F)cc4)CC3)c2c1
[3] Cc1ccc(C(=O)COC(=O)CCC(=O)Nc2ccc(Oc3cc(C)ccc3C(C)C)cc2)cc1
[4] CCOc1ccccc1NC(=O)Cn1c(=O)oc2cc(S(=O)(=O)NCc3ccccc3)ccc21
[5] CCc1ccc(-c2ccc3nnc(SCC(=O)Nc4cccc(C(C)=O)c4)n3n2)cc1
[6] CCN(CC)S(=O)(=O)c1ccc2[nH]cc(C(=O)NCCc3ccccc3)c(=O)c2c1
[7] O=c1c(-c2cc(-c3ccc(F)cc3)nc3c2COc2ccc(Cl)cc2-3)coc2ccc(F)cc12
[8] COc1ccc(-c2cc(C(=O)Nc3cccc(O)c3)on2)cc1OC
[9] O=C(Nc1ccc(OCc2cc(=O)n3c4c(sc3n2)CCCC4)cc1)c1ccc(F)cc1
[10] Cc1nc2c(c(C)nn2C(C)(C)C)c(C)c1CCC(=O)Nc1ccc(Br)cc1Br
Screen / compound no.	1	2	3	4	5	6	7	8	9	10
Polio RdRp inh	110	101	104	101	99	103	107	110	101	110
Polio RdRp inh intensity	112	97	106	113	107	110	110	107	103	112

A second format for part of the listing above:
item	canonical_smiles	Polio RdRp inh	Polio RdRp inh intensity
6	CCN(CC)S(=O)(=O)c1ccc2[nH]cc(C(=O)NCCc3ccccc3)c(=O)c2c1	103	110
3	Cc1ccc(C(=O)COC(=O)CCC(=O)Nc2ccc(Oc3cc(C)ccc3C(C)C)cc2)cc1	104	106
1	Cc1ccc(-c2nn(CCC(N)=O)c(=O)c3ccccc23)cc1	110	112
7	O=c1c(-c2cc(-c3ccc(F)cc3)nc3c2COc2ccc(Cl)cc2-3)coc2ccc(F)cc12	107	110
5	CCc1ccc(-c2ccc3nnc(SCC(=O)Nc4cccc(C(C)=O)c4)n3n2)cc1	99	107
4	CCOc1ccccc1NC(=O)Cn1c(=O)oc2cc(S(=O)(=O)NCc3ccccc3)ccc21	101	113

One compound at a time (already shown). Screens in order: Polio RdRp inh, Polio RdRp inh intensity
`Cc1ccc(-c2nn(CCC(N)=O)c(=O)c3ccccc23)cc1` as listed: 110, 112
`CCN(CC)S(=O)(=O)c1ccc2[nH]cc(C(=O)NCCc3ccccc3)c(=O)c2c1` as listed: 103, 110

Additional structures.
[11] COc1ccc(OC)c(CCNC(=O)CCn2c(=O)c3cccn3c3cccnc32)c1
[12] Cc1ccc(C)c(N2CCN(c3nc4ccc(Cl)cc4n4cnnc34)CC2)c1
[13] Cc1ccc([N+](=O)[O-])cc1S(=O)(=O)N1CCn2cccc2C1c1ccccc1F (stereo unspecified)
[14] CC(C)c1ccc(NS(=O)(=O)c2ccc3[nH]cc(C(=O)NC4CCCCC4)c(=O)c3c2)cc1
[15] CCC(=O)N1CCc2cc(Br)cc(S(=O)(=O)NCCc3cccc(C)c3)c21
[16] CC(C)(C)OC(=O)N1CCC(c2c(C(=O)Nc3ccc4c(c3)OCCO4)cnn2-c2ccccc2)CC1
[17] COc1ccc(C2=NC(c3ccccc3)=Nc3ccc(C)cc3N2)cc1
[18] COc1cc(OC)c(NC(=O)CCCn2nc(C)c3c(C)n(-c4ccccc4)nc3c2=O)cc1Cl
[19] CCOc1ccc(C(=O)Nc2ccc(C(=O)OCc3cc(=O)n4c(C)csc4n3)cc2)cc1
[20] COc1cccc(C(=O)NCC(c2ccc(N(C)C)cc2)N2CCOCC2)c1OC (stereo unspecified)
Screen / compound no.	11	12	13	14	15	16	17	18	19	20
Polio RdRp inh	106	104	101	108	102	109	101	108	105	110
Polio RdRp inh intensity	111	106	102	107	106	111	105	112	106	97

Single values from the results shown.
Polio RdRp inh intensity with entry 16 reads 111
Polio RdRp inh intensity with entry 20 reads 97
Polio RdRp inh with entry 19 reads 105
Polio RdRp inh with entry 14 reads 108
Polio RdRp inh intensity with entry 13 reads 102
Polio RdRp inh intensity with entry 12 reads 106

Additional entries:
[21] COC(=O)c1cc2oc3ccccc3c2n1Cc1nc(-c2ccccc2Cl)oc1C
[22] COc1ccc(NC(=O)N(CCC(C)C)C(C)c2cccs2)c(OC)c1 (stereo unspecified)
[23] Cc1ccc(Cn2nnc3sc4c(c3c2=O)CCC(C)C4)cc1 (stereo unspecified)
[24] COC(=O)c1ccc(NC(=O)CC2C(=O)N(c3ccccc3)C(=O)N2C2CCCC2)cc1 (stereo unspecified)
[25] COc1ccc(Nc2oc(/C=C/c3ccc(F)cc3)nc2C#N)cc1
[26] Cc1cc(C)cc(NC(=O)C2CCN(S(=O)(=O)c3c(C)noc3/C=C/c3ccco3)CC2)c1
[27] Cc1cc(C)n2nc(CNS(=O)(=O)c3ccccc3)nc2n1
[28] Cc1ccccc1Cn1cc(CCC(=O)NCc2cccc(Br)c2)c2ccccc21
[29] O=C(O)CCC(=O)N1CCc2cc(S(=O)(=O)NCc3ccc(F)cc3)ccc21
[30] CCCCN1C(=O)C(O)(c2c(C)[nH]c3ccccc23)c2ccccc21 (stereo unspecified)
Screen / compound no.	21	22	23	24	25	26	27	28	29	30
Polio RdRp inh	100	110	103	106	114	107	104	105	105	106
Polio RdRp inh intensity	108	109	106	114	113	114	103	100	101	106

[31] COc1ccc(CNC(=O)c2cc3c(-c4ccccc4F)nn(C)c3s2)cc1
[32] CCOc1ccc(NC(=O)N2CCOc3ccccc32)cc1
[33] Fc1ccc(-n2cc(-c3ccccc3)c3c(NCCc4ccccc4)ncnc32)cc1
[34] COC(=O)c1ccc(NC(=O)c2nn(C)c3c2COc2ccccc2-3)cc1
[35] COc1ccc(OC)c(NC(=O)c2cccc3c2C(=O)N(C2CCCCC2)C3)c1
[36] O=C(CSc1nnc(-c2ccccc2Cl)o1)N1CCCc2ccccc21
[37] O=C(Nc1cc(Cl)cc(Cl)c1)c1ccc2c(c1)N(Cc1cccc(Cl)c1)C(=O)c1ccccc1S2=O (stereo unspecified)
[38] COc1cccc(N2C(=O)CSC23C(=O)N(CC(=O)Nc2cccc(Cl)c2)c2ccccc23)c1 (stereo unspecified)
[39] Cc1ccc2c(c1)c1c3n2CCN(C(=O)c2ccc(C(F)(F)F)cc2)C3CCC1 (stereo unspecified)
[40] O=c1c2c(-c3ccc(Cl)cc3)ccnc2[nH]n1-c1ccccc1
Screen / compound no.	31	32	33	34	35	36	37	38	39	40
Polio RdRp inh	104	108	105	107	107	106	107	106	105	105
Polio RdRp inh intensity	110	112	101	107	107	105	108	115	106	104

[41] O=C(CCS(=O)(=O)c1nc(-c2cccs2)cc(C(F)(F)F)n1)Nc1ccc(OC(F)(F)F)cc1
[42] CCCCN1CC(c2nc3ccccc3n2CCCCOc2ccc(C)c(C)c2)CC1=O (stereo unspecified)
[43] Cc1cccc(NC(=O)CCn2cnnn2)c1C
[44] CCc1cccc(C)c1NC(=O)C1CCCN(S(=O)(=O)c2cccc3nsnc23)C1 (stereo unspecified)
[45] CCSc1ncc(Cl)c(C(=O)N(Cc2ccccc2)c2ccc(OC)cc2)n1
[46] Cc1ccc(NC(=O)CCNS(=O)(=O)c2ccc3c(c2)CCCC(=O)N3)cc1
[47] CC1=C(c2ccc(C)cc2)S(=O)(=O)N(Cc2ccc(C(=O)NCc3cccc(C)c3)cc2)C1=O
[48] Cc1ccc(SCC(=O)Nc2ccc3oc(-c4ccccc4C)nc3c2)cc1
[49] Cc1ccc(S(=O)(=O)c2cn(C)c3cc(N4CCCC4)c(F)cc3c2=O)c(C)c1
[50] CC(=O)c1ccc(NC(=O)c2nc(-c3ccc(C)cc3)n3c2CCCCC3)cc1
Screen / compound no.	41	42	43	44	45	46	47	48	49	50
Polio RdRp inh	110	107	105	102	105	98	118	113	102	103
Polio RdRp inh intensity	113	107	108	105	106	107	121	116	106	104

[51] Cc1ccc(C(=O)Nc2nc(-c3ccccc3)ns2)cc1
[52] Cc1ccc(C)c(Cn2c(=O)n(Cc3ccccc3)c(=O)c3c2c2cc(C)ccc2n3C)c1
[53] Cc1ccc2nc3c(cc(C#N)c(=O)n3-c3nnc(SCc4ccccc4)s3)c(=O)n2c1
[54] O=C(CCCc1ccccc1)NC1CC(=O)N(c2ccc(Cl)cc2)C1 (stereo unspecified)
[55] O=C(NCC(c1cccnc1)N1CCN(Cc2ccccc2)CC1)C(=O)Nc1cccc(Cl)c1 (stereo unspecified)
[56] COc1ccc(C(=O)Oc2ccc(C3NC(=O)c4c(sc5c4CCN(C)C5)N3)cc2OC)cc1 (stereo unspecified)
[57] COc1ccc(Cn2c(SCc3ccc(C(=O)NC4CCCC4)cc3)nc3cccnc32)cc1
[58] CC(C)c1cccc(C(C)C)c1NC1=NS(=O)(=O)c2ccccc21
[59] O=C(/C=C/c1ccccc1)N1CCN(Cc2cc(=O)n3nc(-c4ccccc4F)sc3n2)CC1
[60] CN(C)c1ccc(CNC(=O)C2CCN(S(=O)(=O)c3ccc4[nH]c(=O)ccc4c3)CC2)cc1
Screen / compound no.	51	52	53	54	55	56	57	58	59	60
Polio RdRp inh	101	112	107	114	111	110	108	106	114	110
Polio RdRp inh intensity	109	114	115	108	113	133	106	104	111	116

[61] Cc1cccc(NC(=O)c2cc3c(=O)n(Cc4cccnc4)ccc3nc2C)c1
[62] COc1ccc(Cl)cc1NC(=O)c1c(NCc2cccnc2)sc2c1CCCC2
[63] COc1cc(Cl)c(C)cc1NC(=O)NC1COc2ccccc2C1 (stereo unspecified)
[64] Cc1cc(Br)ccc1NC(=O)c1ccc(NS(=O)(=O)c2c(C)noc2C)cc1
[65] COc1ccc(C(=O)Nc2ccc3nc(N4CCCCC4)cc(C)c3c2)cc1OC
[66] Cc1ccc(Cl)cc1Nc1sc(C(=O)c2ccccc2)c(N)c1S(=O)(=O)c1ccccc1
[67] CCSc1nnc(NC(=O)c2cc(=O)c3cc(C)c(C)cc3o2)s1
[68] CCOc1ccc(NC(=O)[C@H](Cc2ccccc2)N2Cc3ccccc3C2=O)cc1
[69] COc1ccc(NC(=O)Cn2c(SCc3ccc(F)cc3)nc3cccnc32)c(OC)c1
[70] COc1cc(C(=O)Nc2cccc(OCc3cc(=O)n4c(C)csc4n3)c2)cc(OC)c1OC
Screen / compound no.	61	62	63	64	65	66	67	68	69	70
Polio RdRp inh	101	109	100	105	104	111	105	106	113	103
Polio RdRp inh intensity	109	99	107	105	108	111	106	108	117	107

[71] O=C(NCc1noc2ccccc12)N1CCN(c2ccccc2)CC1
[72] CC(=O)c1ccc(NC(=O)c2ccc(NC(=O)CCS(=O)(=O)c3cccs3)cc2)cc1
[73] CCN(Cc1ccccc1)C(=O)CCc1c(C)nc2c(c(C)nn2-c2ccc(C)c(C)c2)c1C
[74] Cc1cccc(CNC(=O)c2ccc3oc(=O)n(Cc4ccccc4)c3c2)c1
[75] CCN1CCN(c2nnc(-n3cccc3C(=O)Nc3cccc(OC)c3)s2)CC1
[76] CCN(CC)c1ccc(NC(=O)c2cc(C)nc3c2c(C)nn3-c2cccc(F)c2)c(C)c1
[77] COc1ccc(-c2nc3cc(C(C)C)ccc3o2)cc1NC(=O)c1ccc(C)c(Cl)c1
[78] NC(=O)c1ccccc1NC(=O)Cn1nc(Cc2cccnc2)c2ccccc2c1=O
[79] COc1ccccc1NC(=O)c1c(C)cc(C)nc1SCC(=O)Nc1ccc(C)c(C)c1
[80] Cc1ccc(NC(=O)c2sc3nc(-c4cc5ccccc5oc4=O)[nH]c(=O)c3c2C)c(C)c1
Screen / compound no.	71	72	73	74	75	76	77	78	79	80
Polio RdRp inh	104	105	109	108	109	109	108	105	116	83
Polio RdRp inh intensity	104	114	111	96	113	111	109	109	116	131

[81] O=C(Nc1cccc(Br)c1)c1cc(-c2ccc3c(c2)OCCO3)on1
[82] O=C(Nc1ccc2oc(-c3ccncc3)nc2c1)c1ccccc1Cl
[83] COc1ccc(CCNCc2c(C(=O)O)c(C)n(Cc3cccc(C)c3)c2C)cc1OC
[84] CCN1C(=O)C(Cc2nc3ccccc3c(=O)n2-c2ccc(OC)cc2)c2ccccc21 (stereo unspecified)
[85] Cc1cc2c(cc1S(=O)(=O)CCC(=O)N1CCCCC1C)OCC(=O)N2 (stereo unspecified)
[86] Oc1c(C(c2ccccc2F)N2CCN(Cc3ccccc3)CC2)sc2nc(-c3ccco3)nn12 (stereo unspecified)
[87] CC(=O)Nc1ccc(S(=O)(=O)N2CCC(n3c(C)nc4cccnc43)CC2)cc1
[88] COc1ccc(Br)cc1C(=O)Nc1ccc(-c2nc3cc(Cl)ccc3o2)cc1
[89] CCOc1ccc(NC(=O)CCn2c(-c3ccc(F)cc3)cc(C(C)=O)c2C)cc1
[90] COc1cc(Cl)c(C)cc1NC(=O)c1cc2ccc3cccnc3c2[nH]1
Screen / compound no.	81	82	83	84	85	86	87	88	89	90
Polio RdRp inh	107	107	110	111	109	95	94	103	106	107
Polio RdRp inh intensity	109	109	110	108	111	82	104	108	108	108

[91] CCN(C(=O)CSc1nc2ccccc2nc1Cc1ccccc1OC)c1ccccc1
[92] CCOc1ccccc1N(C)C(=O)Cn1cnc2sc(C)c(S(=O)(=O)N3CCC(C)CC3)c2c1=O
[93] CC1(c2ccc(Cl)cc2)CC(C)(C)N(C(=O)c2cccc(F)c2)c2ccccc21 (stereo unspecified)
[94] CCn1c(C(=O)NCc2ccccc2OC)cc2sccc21
Screen / compound no.	91	92	93	94
Polio RdRp inh	108	105	103	104
Polio RdRp inh intensity	113	106	103	107

Compound activity: PubChem, ICCB-Longwood Screening Facility, Harvard Medical School

Only part of the results is shown (hit frequency here may not be typical).
